HPGD block = blocks human HPGD enzyme activity. P15428. purified HPGD, NADH fluorescence kinetic, PGE2 substrate. Potency, µM, for the others: at the top dose activity change, negative = inhibition, hits mostly inhibitors. actives 4.3% (n = 150,000). AID 894; active = well fitted inhibition curve with a large enough effect (not every such curve was filed as active); inconclusive = small, poorly fitted or top-dose-only effect, or another doubt; inactive = no such curve, though single readings can be large or run the other way;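 note: top concentration of the series not given in the record; plate controls included wells without enzyme; inactives centre near -10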
Target sequence (P15428 whole entry, looked up): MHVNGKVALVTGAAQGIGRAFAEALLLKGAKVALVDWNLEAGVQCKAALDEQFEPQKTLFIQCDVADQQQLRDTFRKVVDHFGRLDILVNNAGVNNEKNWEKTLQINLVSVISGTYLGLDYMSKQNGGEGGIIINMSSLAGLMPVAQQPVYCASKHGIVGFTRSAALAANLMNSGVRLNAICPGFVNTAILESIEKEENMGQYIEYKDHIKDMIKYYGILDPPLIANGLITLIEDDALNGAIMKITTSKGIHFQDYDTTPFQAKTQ
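20 nM HPGD preincubated 15 min at room temperature with compound in 50 mM Tris-HCl pH 8, 0.01% Tween 20. Started with 1 mM NAD+ and 30 uM prostaglandin E2; NADH fluorescence (360/450 nm) read 5 times over 30-s intervals, last minus first.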
* = called active by the depositor; ? = inconclusive. % is set by controls: 0 for no effect and ±100 for the full control effect; potency is the fitted concentration of half-maximal effect.

| HPGD block | Molecule |
| --- | --- |
| -8.8% | CCN(c1ccc(C)c(C)c1)S(=O)(=O)c1c(C)[nH]c(=O)[nH]c1=O |
| -3.6% | CC(C)NC(=O)NC(=O)CSc1ncc(C(F)(F)F)cc1Cl |
| ? | CNc1c(N)n(Cc2ccccc2)c(=O)[nH]c1=O |
| -2.3% | CS(=O)(=O)N(CC(=O)N1CCCCCC1)Cc1ccc(Cl)cc1 |
| ? | Clc1cccc(-c2nc3nc4ccccc4nc3n2Cc2ccccc2)c1 |
| -17.5% | C=CCOc1c(Br)cc(CNc2ccc(NC(=O)CCC)cc2)cc1OCC |
| -6.6% | O=C(O)CNC(=O)c1nc(-c2ccccc2)n(-c2ccccc2)n1 |
| -9.8% | O=S(=O)(Nc1ccc2c(c1)nc1n2CCOC1)c1ccccc1 |
| 15.8µM* | Cc1cccc(/C(N)=N/OC(=O)c2ccc(Cl)cc2Cl)c1 |
| ? | COc1cccc2oc(-c3ccco3)cc(=O)c12 |
| 0.2% | O[C@@H](c1ccccc1)C1CCN(CCc2ccccc2)CC1 |
| -3.7% | O=C1CC(c2ccco2)CC(O)=C1C=NCCN1CCN(C(=O)Nc2ccc(Cl)cc2)CC1 (stereo unspecified) |
| -16.6% | O=C(CCCN1C(=O)c2ccccc2C1=O)Nc1nccs1 |
| -14.9% | Cc1cccc(NC(=O)CC2SC(=O)N(c3ccccc3)C2=O)c1 (stereo unspecified) |
| -8.8% | CCOc1ccc2ccccc2c1/C=N\NC(=O)OC |
| -8.4% | CC(NC(=O)Cn1cc(C(=O)C2CC2)c2ccccc21)c1ccccc1 (stereo unspecified) |
| -8.5% | O=C(O)[C@H](CSCc1ccccc1)NS(=O)(=O)c1ccc(F)cc1 |
| -8.0% | O=C(CSc1nnnn1-c1ccccc1)Nc1nsc(-c2ccccc2)n1 |
| -14.8% | O=C(Oc1ccc(-c2cnc3ccccc3n2)cc1)c1cc([N+](=O)[O-])ccc1Cl |
| -8.1% | O=C(Cn1c(=O)oc2cc(S(=O)(=O)N3CCCC3)ccc21)Nc1ccc(C(F)(F)F)cc1 |
| -7.9% | Cc1nn(C(=O)Cn2ccc([N+](=O)[O-])n2)c(C)c1Br |
| 4.0% | O=S(=O)(/C=C/c1ccccc1)N1CCN(c2ccccc2)CC1 |
| -19.6% | CCC(Sc1nc2sc(C(=O)OC)c(C)c2c(=O)n1N)C(=O)NCC1CCCO1 (stereo unspecified) |
| -10.2% | Nc1ccc(-n2nncc2-c2ccco2)cc1 |
| -6.7% | CCOC(=O)N1CCN(C(=O)CSc2nc3c(cnn3-c3ccc(Cl)cc3)c(=O)[nH]2)CC1 |

Some of these compounds in order of their number in HPGD block, ascending.
mol,HPGD block
C=CCOc1c(Br)cc(CNc2ccc(NC(=O)CCC)cc2)cc1OCC,-17.5%
Cc1cccc(NC(=O)CC2SC(=O)N(c3ccccc3)C2=O)c1 (stereo unspecified),-14.9%
O=C(Cn1c(=O)oc2cc(S(=O)(=O)N3CCCC3)ccc21)Nc1ccc(C(F)(F)F)cc1,-8.1%

Following part
| HPGD block | Molecule |
| --- | --- |
| -9.8% | O=C(CSc1ncn[nH]1)Nc1ccc(Br)cc1F |
| -9.5% | CCOC(=O)c1csc(NC(=O)C(C)(C)C)n1 |
| -14.3% | CC(NC(=O)CCSc1nc(-c2ccco2)cc(C(F)(F)F)n1)c1ccccc1 (stereo unspecified) |
| ? | CCOC(=O)c1csc(NC(=O)c2ccc(S(=O)(=O)N3CCCC3)cc2)n1 |
| -4.5% | CC(C)C(=O)Nc1ccc(C(=O)N/N=C/C2CC3C=CC2C3)cc1 (stereo unspecified) |
| -6.7% | COC(=O)[C@@]1(Cc2ccc(OC)cc2)[C@H]2c3cc(C(=O)N4CCCC4)n(Cc4ccccn4)c3C[C@H]2CN1C(=O)c1ccccc1 |
| -8.7% | Cc1ccc(-n2nnc3c(=O)n(Cc4ccccc4C)cnc32)cc1 |
| ? | Cc1ccc(-n2c3c(cc(C(=O)NCCCN4CCOCC4)c2=O)C(=O)CC(C)(C)C3)cc1 |
| 15.8µM* | FC(F)C(F)(F)C(F)(F)C(F)(F)c1cc(-c2ccccc2)n[nH]1 |
| 25.1µM* | c1cncc(-c2nnc(SCc3cccc4ccccc34)o2)c1 |
| -5.7% | c1ccc(NCc2cccnc2)cc1 |
| -14.2% | C=CCNc1ccc(C(=O)O)cc1 |
| -20.0% | Cc1nn2c(N3CCOCC3)c3c(nc2c1-c1ccccc1)CCCC3 |
| -8.1% | COc1ccc(OC)c(-n2c(CN3CCC(C(N)=O)CC3)nc3ccccc3c2=O)c1 |
| ? | CCCSc1nc(-n2ncc(C#N)c2N)c2c3c(sc2n1)CCC(C)C3 (stereo unspecified) |
| -7.7% | Clc1ccc(Cn2cc(Br)cn2)cc1Cl |
| ? | CN1CCN(C(=O)CSc2nc(-c3cccs3)cc(-c3cccs3)c2C#N)CC1 |
| -1.7% | O=C1CC2(CCCC2)CC(=O)N1CCCCNC[C@H]1COc2ccccc2O1 |
| -11.5% | COc1ccc(CN(CC(=O)NCC2CCCO2)C(=O)CCC(=O)Nc2cc(C)ccn2)cc1 (stereo unspecified) |
| -4.2% | N/C(=N\OC(=O)CCCc1ccccc1)c1ccc([N+](=O)[O-])cc1 |
| -11.3% | CCCC(=O)Nc1ccccc1NC(=O)CN(C)S(=O)(=O)c1ccccc1 |
| -6.4% | CCN1CCCC1CNC(=O)c1ccc(CS(=O)(=O)c2ccccc2C)o1 (stereo unspecified) |
| ? | O=c1c(-c2ccc(Br)cc2)coc2c(CN3CCOCC3)c(O)ccc12 |
| -10.9% | Cc1ccc(/C=N/n2c(C)cc(C)c(C#N)c2=O)o1 |
| -3.6% | Cc1cccc(-n2c(SCC(=O)Nc3nnc(C)s3)nnc2-c2ccoc2C)c1 |

Rewritten field by field: part of the list above.
> COC(=O)[C@@]1(Cc2ccc(OC)cc2)[C@H]2c3cc(C(=O)N4CCCC4)n(Cc4ccccn4)c3C[C@H]2CN1C(=O)c1ccccc1
  HPGD block = -6.7%
> CN1CCN(C(=O)CSc2nc(-c3cccs3)cc(-c3cccs3)c2C#N)CC1
  HPGD block = ?
> Clc1ccc(Cn2cc(Br)cn2)cc1Cl
  HPGD block = -7.7%

Next section.
| HPGD block | Molecule |
| --- | --- |
| 20µM* | CCOC(=O)c1c(NC(=O)CSc2nnc(-c3ccccc3)n2CC)sc(C(C)=O)c1C |
| -17.2% | COc1ccc(C(=O)NCc2nnc(SCC(=O)N3CCc4ccccc43)n2Cc2ccccc2)cc1 |
| -13.3% | COCCOC(=O)c1c(C)oc2ccc(OC(=O)c3ccc4c(c3)OCO4)cc12 |
| -17.3% | CCCCCc1c2c(cc(O)c1C(=O)O)OC(=O)c1cc(C(=O)CCCC)c(OC)cc1O2 |
| -14.1% | CC(NC(=O)/C=C/c1ccc(Br)cc1)c1ccccc1 (stereo unspecified) |
| ? | O=C1CCCC(O)=C1C=Nc1ccc2c(c1)oc1ccccc12 |
| -9.2% | O=C(Oc1cc(-c2ccccc2)no1)c1ccc(Cl)cc1 |
| ? | c1ccc(C2CCC(N3CCNCC3)CC2)cc1 (stereo unspecified) |
| -13.0% | NCCCNC(=O)c1cc2ccccc2[nH]1 |
| -15.8% | CC(=O)c1c(N2CCN(Cc3ccc4c(c3)OCO4)CC2)nc(=S)n(-c2ccccc2)c1C |
| -13.4% | O=C1CCCC2=C1C(c1cccs1)n1ncnc1N2 (stereo unspecified) |
| -30.8% | O=C(NCc1ccco1)c1cc([N+](=O)[O-])ccc1N1CCCCC1 |
| -23.5% | O=[N+]([O-])c1cccc(N=NN(CCO)c2cccc([N+](=O)[O-])c2)c1 |
| ? | Cc1ccc(C)c(CN2CCCNC2=O)c1 |
| -23.0% | COc1ccc2nc(NC(=O)C3=NN(c4ccccc4)C(=O)CC3)sc2c1 |
| -15.8% | CCCCCCN(C(=O)CCCCCN1C(=O)NC(c2ccc(C(F)(F)F)cc2)C(C(=O)OCc2ccccc2)=C1C)C(C(=O)NCCCC)c1ccc(OCC(=O)OC)c(C(=O)OC)c1 (stereo unspecified) |
| -9.7% | COCCCNC(=O)CN(c1cc(Cl)cc(Cl)c1)S(C)(=O)=O |
| -5.7% | O=C(CCN1C(=O)c2ccccc2S1(=O)=O)Nc1nc2c(s1)CCCC2 |
| -5.5% | COc1ccc(NC(=O)CC2C(=O)N(c3cccc(OC)c3)C(=O)N2C2CCCCC2)cc1 (stereo unspecified) |
| -2.9% | COC(=O)c1ccc(C(NC(=O)OCc2ccccc2)/C(F)=C/[C@@H](C)C(=O)Nc2ccc(OC)cc2)cc1 (stereo partly specified) |
| -11.3% | CCOC(=O)N1CCC(NCCNC(=O)c2ccccc2Cl)CC1 |
| 22.4µM* | CCN(CC)C(=O)C1CCN(c2ncnc3c2cnn3-c2ccc(C)cc2C)CC1 |
| -8.0% | CCCC(CCC(=O)Nc1ccc(S(N)(=O)=O)cc1)C(=O)O (stereo unspecified) |
| 0.9% | CCOC(=O)Nc1cccc(C(=O)O)c1 |
| -28.1% | COc1ccc(S(=O)(=O)N/N=C(/C)c2cccc(NC(=O)c3ccccc3Cl)c2)cc1 |
| 10µM* | O=C(/C=C/c1c(F)cccc1Cl)NCc1ccco1 |
| -1.5% | COC(=O)[C@@H](NC(=O)NC1CCN(Cc2ccccc2)CC1)C(C)C |
| ? | Clc1ccccc1Cn1c(/C=C/c2ccco2)nc2ccccc21 |
| -7.6% | C=CCn1c(SCc2nnc(-c3ccccc3)o2)nnc1C(O)c1ccccc1 (stereo unspecified) |
| -0.1% | COc1nc(OCCNC(C)=O)nc(N(C)C)n1 |
| -14.8% | Cc1cc2c3nonc3ccc2n1C |
| 14.1µM* | COc1ccc(-c2nnc3ccc(SCC(=O)NCc4ccco4)nn23)cc1OC |
| -12.2% | O=C(NCCCN1CCN(CCCNC(=O)c2ccc(F)cc2)CC1)c1ccc(F)cc1 |
| -5.5% | CCOc1cccc2cc(C(=O)Nc3cc(C)on3)c(=O)oc12 |
| -28.5% | CCCc1cc(-c2n[nH]c(=S)n2CC)c2ccccc2n1 |
| -10.4% | CN(C)S(=O)(=O)Oc1ccsc1C(=O)Nc1cccc(Cl)c1Cl |
| -5.5% | COc1cc(CNCCc2ccccc2)ccc1OCc1ccc(Cl)nc1 |
| -9.8% | O=C(NCc1ccccc1)c1ccc(OCC2CCCO2)cc1 (stereo unspecified) |
| ? | COc1ccc(Nc2cc(C(=O)NCc3ccco3)c3ccccc3n2)cc1 |
| -7.2% | Cc1ccc(NC(=O)c2ccc(S(=O)(=O)NCC3CCCO3)cc2)cc1 (stereo unspecified) |
| 15.8µM* | O=C(NCc1ccco1)c1cc2sccc2n1Cc1ccccc1 |
| -3.0% | Cc1ccc(CCNC(=O)C2CCCN(S(=O)(=O)c3cccs3)C2)cc1 (stereo unspecified) |
| -2.4% | C=CCNC(=O)C1CC1(c1ccccc1)c1ccccc1 (stereo unspecified) |
| -7.6% | CCOc1cc(/C=C2/NC(=O)N(CC(=O)Nc3cccc(C)c3)C2=O)ccc1O |
| -13.1% | O=C(CNc1ccccc1)N/N=C/c1cn(-c2ccccc2)nc1-c1ccccc1 |
| -25.3% | Cc1ccc(S(=O)(=O)Oc2ccc3c(c2)O/C(=C\c2cccnc2)C3=O)cc1 |
| -16.2% | CCOc1ccc(-c2cc(CCCC(=O)NCc3cccnc3)no2)cc1 |
| -21.4% | Clc1ccc(C2=Nn3c(nnc3-c3cc(-c4ccccc4)n[nH]3)SC2)cc1 |
| -11.0% | COc1cccc(Nc2cc(C)nc3nc(C)nn23)c1 |
| -21.9% | COc1ccc(/C=N/NC(=O)c2cccc([N+](=O)[O-])c2)cc1OS(=O)(=O)c1ccc(C)cc1 |

(list continues)
| HPGD block | Molecule |
| --- | --- |
| -21.8% | O=C(N/N=C\c1ccc(COc2ccc([N+](=O)[O-])cc2)o1)c1cccc(Cl)c1 |
| -5.1% | COc1ccc(/C=N/NC(=O)c2ccc(Cl)cc2)cc1COC(C)=O |
| -19.8% | COc1ccc2nc(N3C(=O)/C(=C/c4ccc(Cl)cc4)NC3=S)sc2c1 |
| -27.5% | Cc1ccc(SCCNC(=O)C(C)C)cc1 |
| -1.1% | CCOC(=O)Cc1csc(NC(=O)CSc2ccc(Br)cc2)n1 |
| -4.8% | COC(=O)c1ccc(CSc2nc3sc4c(c3c(=O)n2C)CCCC4)o1 |
| ? | O=C(Nc1ccc(F)cc1)N(CCCN1CCOCC1)Cc1cc2cc3c(cc2[nH]c1=O)OCO3 |
| -7.6% | CC(C)(C)c1ccc(C(=O)NCC(=O)OCN2C(=O)c3ccccc3C2=O)cc1 |
| -12.3% | COc1ccccc1CNC(=O)c1ccc(OCC2CCCO2)cc1 (stereo unspecified) |
| -21.9% | COC(=O)c1cc(NS(=O)(=O)c2ccc(NCc3cccnc3)c([N+](=O)[O-])c2)cc(C(=O)OC)c1 |
| -11.5% | COc1ccc(/C=C(/C(=O)c2ccc(Cl)cc2Cl)n2cncn2)cc1 |
| 22.4µM* | CN(C(=O)c1cnc(N2CCN(c3ncccn3)CC2)c2ccccc12)c1ccc(Cl)cc1 |
| -28.9% | Cn1c(N)c(C(=O)CSc2nc(N)cc(=O)[nH]2)c(=O)n(C)c1=O |
| -11.2% | COc1ccc(OCC(=O)N2CCN(c3nnc(-c4ccccc4)c4ccccc34)CC2)cc1 |
| -2.6% | Cc1cc(C)c(NC2=NS(=O)(=O)c3ccccc32)c(C)c1 |
| -6.0% | COc1ccc(S(=O)(=O)N(CC(=O)N2CCN(C)CC2)C2CCCCC2)cc1OC |
| ? | Cc1nn(-c2ccccc2)c(C)c1/C=N/NC(=O)c1cc(C23CC4CC(CC(C4)C2)C3)[nH]n1 |
| -11.6% | Cc1ccc(C)c(OCCCCCn2ccnc2)c1 |
| -15.0% | C[Se]CCC(N)C(=O)O (stereo unspecified) |
| -3.6% | N#CCSc1nnc(Cc2cccc3ccccc23)n1C1CCCCC1 |
| -12.6% | O=C(NCCn1cc(SCc2ccc(F)cc2)c2ccccc21)c1ccccc1F |
| -19.4% | Cc1cc(C)c2[nH]c(=O)c(CN(CC3CCCO3)C(=O)C3CCCO3)cc2c1 (stereo unspecified) |

The list is partial (hit frequency here may not be typical).
